Screening data (PubChem BioAssay)
VDR inhibitor: vitamin D3 receptor (human) inhibition. VDR-SRC2-3 peptide fluorescence polarization, 2 h. Potency, µM, without a hit: max response, negative = inhibition, actives largely listed as inhibitors. 0.93% of 400,000 active; active = well fitted inhibition curve with a large enough effect; inconclusive = small, poorly fitted or top-dose-only effect, or another doubt; inactive = no such curve, though single readings can be large or run the other way; also: series mostly up to about 120 µM
Target sequence (P11473 whole entry, looked up): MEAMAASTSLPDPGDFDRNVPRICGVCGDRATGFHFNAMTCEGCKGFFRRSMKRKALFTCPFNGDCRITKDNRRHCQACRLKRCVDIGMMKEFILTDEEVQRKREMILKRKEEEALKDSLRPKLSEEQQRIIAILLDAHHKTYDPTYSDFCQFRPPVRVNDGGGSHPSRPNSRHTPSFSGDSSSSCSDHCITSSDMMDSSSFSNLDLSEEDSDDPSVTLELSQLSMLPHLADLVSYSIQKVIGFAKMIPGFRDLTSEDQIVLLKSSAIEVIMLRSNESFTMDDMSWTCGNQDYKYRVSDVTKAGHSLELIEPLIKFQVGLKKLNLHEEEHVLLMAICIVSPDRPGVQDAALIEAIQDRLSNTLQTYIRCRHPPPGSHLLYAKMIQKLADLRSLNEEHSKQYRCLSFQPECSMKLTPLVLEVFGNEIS
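Reagent solutions, kept cold and dark, are dispensed first; compounds are then pinned in at 23 nl, plates briefly spun, and incubated 2 h at ambient temperature. Inhibition of VDR–SRC2-3 peptide binding is read by fluorescence polarization.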
Active calls of the source: *; ? = inconclusive; & = joins results of further samples. % is scaled to controls: 0 for no effect and ±100 for the full control effect; potency is read from the fitted curve at half-maximal effect. Not all compounds are listed; rates above refer to the full screens.

cpd | smiles | VDR inhibitor
1 | COc1ccc(-c2noc(-c3ccc(Br)o3)n2)cc1 | 17.4%
2 | CCOC(=O)C1=C(C)N=C2c3ccccc3C(=O)C2C1c1ccc(Cl)cc1 (stereo not given) | -11.0%
3 | O=c1[nH]c(=O)n(C2CC(O)C(CO)O2)cc1C(F)(F)F (stereo not given) | 2.8%
4 | Cc1ccc(C(=O)C2=C(O)C(=O)N(Cc3cccnc3)C2c2ccc(Cl)cc2)o1 (stereo not given) | -11.0%
5 | Cc1ccc(CN(C)CC(=O)NC(C)c2ccccc2)cc1 (stereo not given) | 8.4%
6 | O=C(O)c1cc(/C=C/c2ccc(N3CCOCC3)c([N+](=O)[O-])c2)nc2ccccc12 | -14.1%
7 | O=C(N/C(=C\c1ccc(-c2ccccc2)o1)C(=O)N1CCOCC1)c1ccccc1 | 8.1%
8 | CCOc1ccc(C(C)=O)cc1CN1c2ccc(S(N)(=O)=O)cc2CC1C (stereo not given) | 6.0%
9 | O=C(Cn1nnc(-c2cccc(C(F)(F)F)c2)n1)NC(=O)NCc1ccco1 | -1.1%
10 | O=C(NCCSc1c[nH]c2ccccc12)c1ccc2c(c1)OCO2 | -1.4%
11 | CCOC(=O)COc1ccc2c(C)c(CCN(CC)CC)c(=O)oc2c1Cl | 0.2%&6.8%
12 | O=C1CN(C(=O)C2CCC(=O)N(CCc3ccc(Cl)cc3)C2)CCN1 (stereo not given) | -0.6%
13 | Cc1ccc(CNC(=O)[C@H](C)NC(=O)C2CCN(C(=O)[C@@H]3CCCN3C(=O)OC(C)(C)C)CC2)cc1 | -9.9%
14 | CN(C)c1cc(-c2ccccc2)nc(N)n1 | -7.4%
15 | O=c1c2ccccc2[nH]c(=S)n1CCN1CCCCC1 | 14.9%
16 | Cc1ccn2c(-c3n[nH]c(=S)n3Cc3ccccc3)c(C)nc2c1 | -5.3%
17 | COc1ccc(C2/C(=C(\O)c3cccc(OC)c3)C(=O)C(=O)N2c2ccccn2)cc1 (stereo not given) | -2.3%
18 | Cc1oc2ncn(CC(C)C)c(=O)c2c1C(=O)Nc1cccc(C(F)(F)F)c1 | 10.9%
19 | COc1cnc(SCc2ccc(Cl)cc2)nc1Cl | 11.2%
20 | CCc1ccc(C(C)NC(=O)c2ccncc2)cc1 (stereo not given) | -6.7%
21 | Nc1nc(SCC(=O)Nc2cccc(C(F)(F)F)c2)n[nH]1 | 0.8%
22 | COc1ccc(-n2nc(C)cc2N)cc1 | -12.6%
23 | Cn1nccc1C(=O)N/N=C/c1cccnc1 | -10.7%
24 | CCOC(=O)c1c(C)[nH]c(C(=O)CSc2nnc(CC(C)c3ccccc3)o2)c1C (stereo not given) | -3.1%
25 | CCCc1nc(N)nc2c1C(=O)CC(C)(C)C2 | 8.6%
26 | Cn1c(CN2CCCC2)nc2cc(NS(=O)(=O)c3ccc(Cl)cc3)ccc21 | -13.3%
27 | CCCNC(=O)C1CCC(Cn2c(=O)c3sccc3n(Cc3cccc(OC)c3)c2=O)CC1 (stereo not given) | 12.3%
28 | Brc1cccc(-c2nnc3n2CCCCC3)c1 | 9.4%
29 | CCC(=O)Nc1ccc(-c2nn3c(C)nnc3s2)cc1C | -3.8%
30 | CC1CCCCN1S(=O)(=O)c1ccc2c(c1)CCN2C(=O)CCC(=O)O (stereo not given) | 15.3%
31 | O=C(Nc1ccc2c(c1)OCO2)C1CC(c2ccc(F)cc2)=NO1 (stereo not given) | -16.6%
32 | O=C(COc1ccc([N+](=O)[O-])cc1)N/N=C/c1cc([N+](=O)[O-])ccc1N1CCOCC1 | -6.2%
33 | COC(=O)c1cc(=O)n(CCc2ccc(OC)c(OC)c2)c(=Nc2ccc(F)c(Cl)c2)s1 | -21.2%
34 | CON(C)C(=O)CCN(C(=O)OC(C)(C)C)c1ccccc1 | -4.2%
35 | Cc1ccc(/C(O)=C2\C(=O)C(=O)N(CC(C)O)C2c2ccc(N(C)C)cc2)cc1 (stereo not given) | -0.3%
36 | Oc1ccc(N=Nc2ccccc2C(F)(F)F)c2cccnc12 | 1.0%
37 | O=C(NCc1ccccc1)C(c1ccccc1)N(Cc1cccs1)C(=O)c1cnccn1 (stereo not given) | -11.1%
38 | COc1ccc(-c2nc3c(s2)CCc2onc(-c4ccc(OC)cc4)c2-3)cc1 | -10.8%
39 | COc1cccc(NC(=O)N(Cc2cn(C)c3ccccc23)C2CCCCC2)c1 | -14.0%
40 | CCn1c(/C=C/c2cc[n+](C)cc2)nc2ccccc21 | 2.0%
41 | Cc1ccc(NC(=O)CSc2nc3ncccc3[nH]2)cc1F | 14.9%
42 | CCOc1cccc(CNn2cnnc2)c1OCc1ccccc1 | -4.2%
43 | O=C(CSc1nnc(CNC(=O)c2c(F)cccc2F)o1)c1ccccc1 | -5.5%
44 | O=C(c1cccc(C(F)(F)F)c1)N1CCC(=O)N(C(CO)Cc2ccccc2)CC1 (stereo not given) | ?
45 | CCC(=O)N1CCN(c2ccc(NC(=O)c3ccco3)cc2Cl)CC1 | 8.2%
46 | CCOc1ccc(-n2c(Cc3cc(=O)[nH]c(=O)[nH]3)nnc2SCC(N)=O)cc1 | 24.8%
47 | COc1cc(C(=O)NCCC(=O)NC2CCCCCCC2)cc(OC)c1OC | 16.7%
48 | CCN(C(=O)COC(=O)CC1CCCCC1)c1c(N)n(Cc2ccccc2)c(=O)[nH]c1=O | 17.8%
49 | Cc1nc(SC(C)C(=O)NCc2ccc3c(c2)OCO3)nc(C)c1C (stereo not given) | -20.2%
50 | CC(OC(=O)C1CCC(=O)N1)C(=O)Nc1cc(Cl)cc(Cl)c1 (stereo not given) | -8.8%
51 | COc1cc(CC(=O)OCC(=O)Nc2ccc3c(c2)OCO3)cc(OC)c1OC | -8.8%
52 | Cc1nn(C(C)c2n[nH]c(=S)n2-c2ccc(F)cc2)c(C)c1[N+](=O)[O-] (stereo not given) | 17.5%
53 | CC(=O)Nc1ccc(NC(=O)C23CC4CC(C2)CC(n2cnc(Br)n2)(C4)C3)cc1 | 6.5%
54 | CN(/N=C/c1ccccc1Cl)c1ncc(Cl)cc1C(F)(F)F | 10.2%
55 | CC(=C/C(=O)O)/C(=C/c1ccccc1)C(=O)O | 14.3%
56 | N#Cc1ccc(OCC(=O)Nc2ccc(S(=O)(=O)N3CCOCC3)cc2)cc1 | -4.3%
57 | COC(=O)CNC(=O)COC(=O)/C=C/c1ccccc1[N+](=O)[O-] | -1.6%
58 | Cc1ccc(CNC(=O)C(NS(=O)(=O)c2ccc3nc(C)sc3c2)C(C)C)cc1 (stereo not given) | -17.1%
59 | CCOC(=O)Nc1ccc2c(c1)Nc1ccccc1S2 | 2.1%
60 | CNC(=O)NC(=O)CSc1nnc(-c2ccco2)n1Cc1ccccc1 | 1.4%

Continued:
cpd | smiles | VDR inhibitor
61 | Nc1nc(Cl)cc(N2CCC(c3cc(-c4ccc(Cl)cc4Cl)n[nH]3)CC2)n1 | 13.0%
62 | Cn1c(SCC(=O)Nc2cc(S(=O)(=O)N3CCOCC3)ccc2N2CCOCC2)nnc1-c1ccncc1 | 3.5%
63 | CCOc1ccc(NS(=O)(=O)c2ccc(C(=O)N3CCCC(C)C3)cc2)cc1 (stereo not given) | 7.1%
64 | COc1ccnc2c1c(=O)n(Cc1ccc(Cl)cc1)c(=O)n2C | -4.7%
65 | CC(=O)N1c2ccc(S(=O)(=O)N3CCC(C(=O)Nc4ncccc4C)CC3)cc2CC1C (stereo not given) | -14.9%
66 | CCCc1nn2c(=O)c(C(c3ccc(C)cc3)c3c(O)nc4sc(CCC)nn4c3=O)c(O)nc2s1 | 0.7%
67 | COCCn1c(SCC(=O)NC2CCCCC2C)nnc1-c1ccncc1 (stereo not given) | 5.9%
68 | CCOC(=O)Cc1c(C)nc(N)[nH]c1=O | -17.2%
69 | O=S(=O)(NCC1CCCO1)c1ccc2c(c1)OCCO2 (stereo not given) | 5.7%
70 | Cc1ccc(C(=O)N(C)CC(=O)Nc2ccc(F)c(F)c2F)o1 | 8.2%
71 | Cc1nnc(N2CCN(c3cccc(C(F)(F)F)c3)CC2)c2c1nnn2Cc1ccccc1 | 4.1%
72 | O=C(Nc1ncnc2sc3c(c12)CCC3)c1ccco1 | 10.6%
73 | Cc1cccc(-n2c(=O)c3c(c4cc(C)ccc4n3C)n(CC(=O)Nc3ccc(C)cc3C)c2=O)c1 | 11.2%
74 | COc1ccc(C/C(=N\O)c2ccc(OC)cc2)cc1 | -0.6%
75 | Cc1nn(C)c(C)c1S(=O)(=O)N1CCC(CO)(Cc2ccc(Cl)cc2)CC1 | -10.8%
76 | Cc1ccc(S(=O)(=O)NN=Cc2cc(Cl)ccc2O)cc1 | 10.5%
77 | O=C(NCc1ccc2c(c1)OCO2)C1CC(=O)N(c2ccc(F)cc2)C1 (stereo not given) | 4.6%
78 | N#C/C(=C\c1ccc(-c2ccc(Cl)c(C(=O)O)c2)o1)c1nc2ccccc2[nH]1 | -13.5%
79 | NC(=NCCc1c[nH]c2ccccc12)NC(=O)c1ccc(F)cc1 | -6.3%
80 | O=C(Nc1ccc(Cl)cc1N1CCOCC1)C1CCCCC1 | -12.5%
81 | Cc1ccc(-n2c(Cc3cccs3)nnc2SCC(=O)Nc2ccc(F)c(F)c2)cc1 | 2.2%
82 | COC(=O)c1cc2sccc2n1Cc1ccccc1 | 3.8%
83 | Cc1cc(C)cc(NC(=O)NCc2c(-c3ccccc3)noc2C)c1 | 1.1%
84 | Cc1cc2oc(=O)c(CC(=O)NCCCO)c(C)c2c2occ(C(C)(C)C)c12 | -11.0%
85 | O=C(Nc1ccccc1)N(CCc1nc2ccccc2[nH]1)C1CCCC1 | 4.1%
86 | C=CCc1c(C)c(C#N)c2nc3ccccc3n2c1N1CCCCC1 | 11.6%
87 | COc1ccc(NS(=O)(=O)c2ccc3oc(=O)ccc3c2)cc1 | -13.6%
88 | O=S(=O)(NCCc1csc(-c2cccc(F)c2)n1)c1cc(F)ccc1F | -6.7%
89 | COc1cc(C)nc(N2CCCC(C(=O)Nc3cccc(Cl)c3Cl)C2)n1 (stereo not given) | 0.6%
90 | CCOc1ccc(OCCC(=O)N(CCC(C)C)c2c(N)n(Cc3ccccc3)c(=O)[nH]c2=O)cc1 | -2.7%
91 | NC(=O)c1cc2ccccc2o/c1=N/NC(=O)c1cccc(Cl)c1 | 23.2%
92 | CN(C(=O)COC(=O)C12CC3CC(CC(Cl)(C3)C1)C2)C1(C#N)CCCCC1 | 11.0%
93 | COCCN(C(=O)CCC(=O)Nc1cc(C)on1)C(C(=O)NC(C)(C)C)c1ccccc1Cl (stereo not given) | -2.6%
94 | COc1ccccc1CNC(=O)C(NC(=O)c1ccc(C)cc1)C(C)C (stereo not given) | -13.3%
95 | COc1ccc(S(=O)(=O)N(CC(=O)NCCSc2ccccn2)c2ccccc2)cc1 | -5.1%
96 | CCN(c1ccc(NC(=O)COC(=O)CCc2cc(OC)c(OC)c(OC)c2)cc1)C(C)C | 7.9%
97 | COc1ccc(CCn2c(=N)c(C(=O)NCC3CCCO3)cc3c(=O)n4cccc(C)c4nc32)cc1OC (stereo not given) | -9.9%
98 | CCCNC(=O)c1c(NC(=O)c2ccc(C)cc2)sc2c1CCCCC2 | -9.6%
99 | CCn1cnc2sc(C(=O)O)c(C)c2c1=O | 2.1%
100 | O=C(NCCCN1CCCC1=O)c1cccc(S(=O)(=O)N2CCN(c3ccccc3)CC2)c1 | 2.0%
101 | CC(=O)Nc1ccc(NC(=O)C(C)Sc2n[nH]c(-c3ccc(C)cc3)n2)cc1 (stereo not given) | 5.0%
102 | COc1ccc(CNc2nc(-c3ccco3)nn2C(=O)c2ccccc2Cl)cc1 | -0.2%
103 | Cc1cc(-c2nnc(CCC(=O)NCC(C)c3ccccc3)o2)no1 (stereo not given) | -12.2%
104 | Cc1cc(C(=O)COc2ccc(C#N)cc2)c(C)n1CC1CCCO1 (stereo not given) | 14.3%
105 | On1nnc2ccc(C(F)(F)F)cc21 | 1.8%

Random excerpt: three entries already listed.
cpd | smiles | VDR inhibitor
95 | COc1ccc(S(=O)(=O)N(CC(=O)NCCSc2ccccn2)c2ccccc2)cc1 | -5.1%
104 | Cc1cc(C(=O)COc2ccc(C#N)cc2)c(C)n1CC1CCCO1 (stereo not given) | 14.3%
101 | CC(=O)Nc1ccc(NC(=O)C(C)Sc2n[nH]c(-c3ccc(C)cc3)n2)cc1 (stereo not given) | 5.0%

Next section
cpd | smiles | VDR inhibitor
106 | COc1ccc(/C=C/C(=O)NCC(=O)N/N=C/c2cc(Br)ccc2OCc2ccccc2)cc1 | 11.6%
107 | CCOc1ccc(NC(=O)N2CCC(c3nc4ccccc4o3)CC2)cc1 | 8.2%
108 | CCN(CC)S(=O)(=O)c1ccc(Cl)c(C(=O)Nc2nnc(C)s2)c1 | 0.0%
109 | CC(=O)N1N=C(c2cccs2)CC1c1ccc(Br)cc1 (stereo not given) | 2.7%
110 | O=C(c1cccc(OC2CCN(Cc3cccc(OCCO)c3)CC2)c1)N1CCCC1 | -7.0%
111 | CC(=O)Nc1ccc(S(=O)(=O)N(C)CC(=O)OCC(=O)N2CCCCCC2)cc1 | 16.2%
112 | Cc1ccc(OCCCN2CCOCC2)cc1 | -5.8%
113 | Cc1cccc(NC(=O)C2CCCN2C(=O)OCC(C)C)c1C (stereo not given) | 2.0%
114 | COc1ccc2c(c1)cc(C(=O)O)n2C | 4.6%
115 | O=C(CN1CCN(c2ccc(F)cc2)CC1)OCc1ccccc1 | 0.2%
116 | O=C(NCCSc1ccc(Br)cc1)c1ccc2nc[nH]c2c1 | -1.1%
117 | CCC(C(=O)N1CCOCC1)n1nc(C)c2c(C)n(-c3ccccc3)nc2c1=O (stereo not given) | -20.7%
118 | COc1ccc(NC(=O)c2onc(C)c2Cl)cc1OC | -4.3%
119 | COc1ccc(NS(=O)(=O)/C=C/c2ccc(OC)c(OC)c2)cc1 | 2.8%
120 | CC12CCC(C(=O)N(NC(=O)c3ccccc3O)C1=O)C2(C)C (stereo not given) | -1.7%

2 entries from above, as labelled records:
[120] CC12CCC(C(=O)N(NC(=O)c3ccccc3O)C1=O)C2(C)C (stereo not given)
- VDR inhibitor = -1.7%

[114] COc1ccc2c(c1)cc(C(=O)O)n2C
- VDR inhibitor = 4.6%
